Assay outcomes: PubChem, several laboratories
MT1-MMP act inh = MT1-MMP (human) activation inhibition. GFP/RFP ratio change, % at 20 µM. P50281. 360,000 tested, 0.061% active. HT1080 RFP-PRO-GFP cells, GFP/RFP ratio fluorescence, overnight; percent of plate control window, DMSO zero;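 active = GFP/RFP ratio change of at least 30% with cell ATP level not reduced by more than half and red fluorescence within 50% of control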; also: strong numbers were not always called active
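Compound: 20 µM single dose, 1% DMSO / System: HT1080 RFP-PRO-GFP cells / Controls: DMSO and RFP-L50D-GFP cell wells / Read-out basis: GFP/RFP fluorescence ratio / Schedule: overnight compound exposure at 37 °C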
PABP FP inh = PABP-poly(A) binding inhibition; P11940; PABP-poly(A) RNA binding, fluorescence polarization; inhibition, % at 35 µM; 290,000 tested, 1% active; AID 2014;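 active = 50% or more with normal probe brightness, or confirmed in later tests; about a fifth of its hits are not listed in these tables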;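 also: calls also rest on retests at 20 µM and on dose response follow-up; controls were probe without protein and protein plus probe with vehicle; some compounds called inactive have numbers as strong as hits; many hits fall short of the cut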
eIF4H inh = inhibitors of RNA binding by human eIF4H; eIF4H fluorescence polarization binding assay; 290,000 tested, 0.94% active; AID 2012; inhibition, % at 35 µM;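 active = 50% or more with normal probe brightness, or confirmed in later tests; about a fifth of its hits are not listed in these tables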;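 also: calls also rest on retests at 20 µM and on dose response follow-up; 0% = protein and probe with vehicle and 100% = probe without protein; strong numbers were not always called active; many hits fall short of the cut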
Env fusion inh = HIV envelope-mediated fusion inhibition | HeLa-JRFL Env/CEM21 cell fusion, luciferase | inhibition, % at 12.3 µM | 360,000 tested, 1.1% active;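 active = mean replicate inhibition score of at least 50 and every replicate individually at or above 50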;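 also: 0% = plate neutral controls and 100% = maraviroc near 300 nM; one replicate is shown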
CSC inhib = blocks cancer stem cells. cancer stem cell-like cells viability, luminescence. inhibition, % at 7.5 µM. 300,000 tested, 1.1% active. AID 2717;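 active = mean at 75% or more and at least half the replicates too; tested in HMLE shEcad cells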;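 also: 0% = median of negative and 100% = median of positive control wells; the first replicate is given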
Rce1 inh = inhibitors of yeast Ras-converting enzyme; AID 2563; 290,000 tested, 0.27% active; Q03530; yeast membranes, quenched prenylated peptide cleavage fluorescence; calls only;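 active = fall in fluorescence gain of 50% or more versus controls, with final raw signal at or below 3038400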;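 also: plate controls were neutral control wells for no effect and wells lacking membranes for full effect; tested at 10 µM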
Target sequence (Q03530 whole entry, looked up): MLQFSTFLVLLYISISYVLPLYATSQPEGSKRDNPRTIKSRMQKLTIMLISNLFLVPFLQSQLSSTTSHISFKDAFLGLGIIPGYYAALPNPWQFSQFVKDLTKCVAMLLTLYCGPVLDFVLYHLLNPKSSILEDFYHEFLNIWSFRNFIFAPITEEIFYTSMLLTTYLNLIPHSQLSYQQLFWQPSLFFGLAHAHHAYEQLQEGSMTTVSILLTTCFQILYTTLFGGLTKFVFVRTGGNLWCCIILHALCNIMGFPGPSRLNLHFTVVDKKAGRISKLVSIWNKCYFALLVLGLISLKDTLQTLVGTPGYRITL
UUG fidelity = alters start codon recognition fidelity in yeast | 350,000 tested, 0.13% active | activity score, % at 18.7 µM | S. cerevisiae UUG-firefly luciferase reporter, luminescence/redox ratio;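 active = replicate mean at a twofold rise or more, about +100% in these data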;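 also: firefly luciferase made from a UUG start codon reports start codon fidelity; reporter light over untreated wells divided by growth signal over untreated wells; some hits fall short of that in this replicate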
eIF4H inh retest = second read-out of eIF4H inh, no call of its own (marks repeat the call); inhibition, %; compound at 20 µM; confirmation average;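 mean of two retest wells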
PABP FP inh retest = second read-out of PABP FP inh, no call of its own (marks repeat the call); inhibition, %; compound at 20 µM; confirmation repeats;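 mean of two retest wells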
MT1-MMP act inh RFP = further read-out of MT1-MMP act inh, marked with its call; RFP signal change, %; measured here: RFP expression control read;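 0 = vehicle wells; hits needed this value within 50% of zero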
* = called active by the depositor; i = inactive; . = not tested or not shown. Some of the compounds tested. The share of hits here may be higher or lower than overall.

SMILES | MT1-MMP act inh | MT1-MMP act inh RFP | PABP FP inh | eIF4H inh | Env fusion inh | CSC inhib | Rce1 inh | UUG fidelity | others
Cc1ccc(Nc2ccc3nonc3c2[N+](=O)[O-])cc1 | 0 | 3 | 15 | -8 | -11 | -15 | i | .
Cc1ccc(-n2nnnc2SCC(=O)NNC(=O)c2ccco2)cc1C | 0 | 0 | -5 | -12 | . | 4 | i | -18
CCOC(=O)COc1cccc2c(=O)n(CC(=O)NCc3ccc4c(c3)OCO4)ccc12 | 5 | -16 | -13 | -2 | -32 | 46 | i | -12
COc1ccc(OC)c(S(=O)(=O)CC(O)COc2ccccc2Cl)c1 (centres undefined) | -2 | 0 | 4 | 2 | 18 | 20 | i | 18
O=C(Nc1nnc(C2CC2)s1)C1Cc2ccccc2CN1S(=O)(=O)c1ccccc1F (centres undefined) | 0 | -1 | -6 | 4 | . | 20 | i | .
CCOc1ccc(NC(=O)CSc2ccc3nnc(-c4ccccn4)n3n2)cc1 | 4 | 5 | -18 | -3 | . | -10 | i | -34
COc1ccccc1OCCCCN1CCN(c2ccccc2OC)CC1 | -5 | 1 | 38 | -2 | . | 12 | i | -7
C=CCN(CC=C)C(=S)NC(=O)c1ccc(OC)cc1 | . | . | 10 | 12 | -1 | -2 | i | .
CCOC(=O)c1c(NC(=O)C(=O)N/N=C/c2ccccc2OC)sc2c1CCCCC2 | 5 | 9 | -12 | -12 | -38 | 14 | i | .
COC(=O)c1c(-c2ccccc2)csc1NC1=NS(=O)(=O)c2ccccc21 | 8 | 3 | -4 | -9 | . | 22 | i | -11
CCCn1ccnc1SC(C)C(=O)Nc1c(C)n(C)n(-c2ccccc2)c1=O (centres undefined) | 2 | 0 | . | . | . | -7 | . | -5
CCOc1ccc(CCNC(=O)COc2cc(=O)n(C)c3ccccc23)cc1OCC | 3 | 4 | -7 | 0 | 11 | -9 | i | .
O=C(NCC1CCN(Cc2ccccc2F)CC1)Nc1cccc(Br)c1 | 5 | -7 | 2 | 5 | 11 | 1 | i | -17
COc1cc(C(=O)Nc2ccc3c(c2)OCCO3)ccc1-n1cnnn1 | 6 | 3 | 5 | -10 | 16 | -5 | i | -20
Cn1cnnc1SCC(=O)NC1CCCc2ccccc21 (centres undefined) | 1 | 2 | -11 | -3 | 11 | -5 | i | .
O=C(C1CCN(S(=O)(=O)c2cccc3cccnc23)CC1)N1CCN(c2ccccn2)CC1 | 3 | 4 | 1 | 1 | . | -11 | i | -10
O=C(CCCCn1c(=O)c2ccccc2n(Cc2ccccc2)c1=O)NC1CCN(Cc2ccccc2)CC1 | 1 | -2 | -5 | -12 | -13 | -8 | i | -8
Cc1cc(C(=O)Nc2c(C)nn(Cc3c(Cl)cccc3Cl)c2C)no1 | 25 | 7 | 8 | 3 | -16 | 13 | i | .
CN1CCN(C(=O)/C(=C/c2ccco2)NC(=O)c2ccccc2)CC1 | -6 | 4 | 19 | 12 | 0 | -6 | i | -16
CC(=Cc1ccccc1)C(=O)c1ccccc1 | 0 | -1 | . | . | -5 | . | . | -9
C=CCn1c(C)cc(-c2csc(NC(=O)C3=COCCO3)n2)c1C | -8 | 2 | . | . | -4 | -8 | i | -24
COc1ccc(NC(=O)C(C)Oc2ccc(/C(C)=N\O)cc2)cc1 (centres undefined) | 1 | 3 | 3 | 2 | 0 | -7 | i | -24
Cc1ccc2c(c1)c1ncn(Cc3ccc(F)cc3)c(=O)c1n2C | 3 | 3 | 24 | 39 | -14 | 22 | i | -3
CCN(CC(=O)Nc1ccc2c(c1)OCCO2)C(=O)/C=C/c1ccc(OC)cc1OC | 1 | 6 | 48 | 18 | -26 | 3 | i | 8
CNC(=O)C[C@H]1C(=O)N(CCc2ccccc2)C[C@@H]1Cc1ccccc1 | 3 | 1 | . | . | -15 | . | . | -5

The final six entries of the section before lead into the next:
SMILES | MT1-MMP act inh | MT1-MMP act inh RFP | PABP FP inh | eIF4H inh | Env fusion inh | CSC inhib | Rce1 inh | UUG fidelity | others
CC(=Cc1ccccc1)C(=O)c1ccccc1 | 0 | -1 | . | . | -5 | . | . | -9
C=CCn1c(C)cc(-c2csc(NC(=O)C3=COCCO3)n2)c1C | -8 | 2 | . | . | -4 | -8 | i | -24
COc1ccc(NC(=O)C(C)Oc2ccc(/C(C)=N\O)cc2)cc1 (centres undefined) | 1 | 3 | 3 | 2 | 0 | -7 | i | -24
Cc1ccc2c(c1)c1ncn(Cc3ccc(F)cc3)c(=O)c1n2C | 3 | 3 | 24 | 39 | -14 | 22 | i | -3
CCN(CC(=O)Nc1ccc2c(c1)OCCO2)C(=O)/C=C/c1ccc(OC)cc1OC | 1 | 6 | 48 | 18 | -26 | 3 | i | 8
CNC(=O)C[C@H]1C(=O)N(CCc2ccccc2)C[C@@H]1Cc1ccccc1 | 3 | 1 | . | . | -15 | . | . | -5
COc1ccc(CCNCC(O)COc2ccc(Cl)cc2)cc1OC (centres undefined) | 0 | 3 | -4 | -7 | 3 | -4 | i | 1
N#Cc1cn(Cc2ccccc2)c2ccccc12 | -4 | -4 | -1 | 3 | -252 | . | i | -16
CCOC(=O)C1CCCN(C(=O)c2cc(S(=O)(=O)N3CCCCC3)c[nH]2)C1 (centres undefined) | 0 | 3 | -2 | -11 | 23 | 4 | i | -2
Cc1ccc2c(CC(=O)NCC3COc4ccccc4O3)coc2c1 (centres undefined) | 4 | 7 | 1 | 3 | . | -2 | i | 7
COCC(=O)Nc1nc2n(n1)C(c1ccccc1Cl)CC(c1ccc(OC)cc1)N2 (centres undefined) | -4 | -5 | 0 | 0 | . | -4 | i | -12
CCOC(=O)c1c(C)n(S(=O)(=O)c2ccc(C)cc2)c2ccc(O)c(C(=O)O)c12 | 3 | 5 | 7 | 4 | -12 | -6 | . | 0
CCOC(=O)c1c(C)[nH]c(C(=O)Nc2ccc3c(c2)OCO3)c1C | . | . | -1 | -3 | . | -16 | i | .
N#CC(C(=S)Nc1ccccc1)c1nc2ccccc2[nH]1 (centres undefined) | 0 | -15 | -8 | 18 | 5 | 19 | i | -33
COc1ccc(CC(=O)NC(C)c2nnc(SCC(=O)c3ccc(OC)cc3)n2C)cc1 (centres undefined) | -2 | 3 | 1 | -8 | 21 | -8 | i | .
CN(C)c1ccc(C=C2SC(=S)N(Cc3ccco3)C2=O)cc1 | -19 | 56 | . | . | -4 | . | . | -2
Cc1ccc(C(=O)NC2CCCCC2)cc1 | 6 | 4 | -3 | -2 | . | -8 | i | -25
COc1ccc(NS(=O)(=O)c2c(F)cc(F)c(Cl)c2F)cc1S(=O)(=O)N1CCCCC1 | 2 | 0 | 5 | 1 | -16 | 5 | i | 7
S=c1[nH]nc(COc2ccc3c(c2)OCO3)n1-c1ccccc1 | 1 | 3 | 6 | -4 | . | -6 | i | -30
O=C(CSc1nnc(-c2ccc(F)cc2)c2ccccc12)Nc1c(F)cccc1F | -6 | -8 | 14 | -5 | 6 | -9 | . | .
COc1cccc(NC(=O)CSc2ccc3nnc(CCNC(=O)c4ccccc4)n3n2)c1 | -3 | 1 | -3 | 2 | 3 | -2 | i | -5
CN(C)S(=O)(=O)N1CCc2ccc(NC(=O)c3ccccc3Cl)cc2C1 | 2 | -1 | 5 | 0 | 5 | -15 | i | 3
O=C(CSc1nc2ccccc2o1)Nc1ccccc1N1CCCCCC1 | -3 | -2 | -11 | 8 | -45 | 38 | i | -17
O=C(c1cc(COc2ccc(F)cc2Cl)on1)N1CCN(C2CCCC2)CC1 | -1 | -1 | -10 | -9 | 14 | 23 | i | -4
COc1ccc(-c2ccc(C(=O)Nc3cccc(F)c3)c3occc23)c(C)c1 | -1 | -11 | . | . | -231 | . | . | -12
CCN1CCc2c(sc(NC(=S)NC(=O)c3ccc(Cl)cc3)c2C(N)=O)C1 | -119 | 7 | 55 | 95 | 4 | -8 | i | 7 | eIF4H inh retest=35;PABP FP inh retest=33
Cc1ccc(OCCC(=O)NNC(=O)c2cc(C)oc2C)cc1 | -2 | 4 | . | . | -4 | 12 | i | -8
O=C(NC1CCCC1)C(c1ccncc1)N(C(=O)c1csnn1)c1ccccc1 (centres undefined) | 1 | 6 | 6 | 2 | 0 | -19 | i | -23
Nc1nc(N)n(-c2ccccc2)c(=Nc2ccccc2)n1 | 3 | 5 | 0 | 8 | -1 | -10 | i | -6
N#Cc1ccsc1NC(=O)CN1CCOCC1 | 0 | 4 | 8 | 23 | 12 | -18 | i | -15
CCn1c(SCC(=O)N/N=C/C=C/c2ccccc2[N+](=O)[O-])nnc1-c1ccc(Cl)cc1 | . | . | 0 | 2 | 12 | 0 | i | .

Arranged by SMILES length (high to low): some entries from above
SMILES | MT1-MMP act inh | MT1-MMP act inh RFP | PABP FP inh | eIF4H inh | Env fusion inh | CSC inhib | Rce1 inh | UUG fidelity | others
COc1ccc(CC(=O)NC(C)c2nnc(SCC(=O)c3ccc(OC)cc3)n2C)cc1 (centres undefined) | -2 | 3 | 1 | -8 | 21 | -8 | i | .
COc1ccc(-c2ccc(C(=O)Nc3cccc(F)c3)c3occc23)c(C)c1 | -1 | -11 | . | . | -231 | . | . | -12
O=C(c1cc(COc2ccc(F)cc2Cl)on1)N1CCN(C2CCCC2)CC1 | -1 | -1 | -10 | -9 | 14 | 23 | i | -4
Cc1ccc2c(CC(=O)NCC3COc4ccccc4O3)coc2c1 (centres undefined) | 4 | 7 | 1 | 3 | . | -2 | i | 7
N#Cc1cn(Cc2ccccc2)c2ccccc12 | -4 | -4 | -1 | 3 | -252 | . | i | -16
N#Cc1ccsc1NC(=O)CN1CCOCC1 | 0 | 4 | 8 | 23 | 12 | -18 | i | -15

(continued)
SMILES | MT1-MMP act inh | MT1-MMP act inh RFP | PABP FP inh | eIF4H inh | Env fusion inh | CSC inhib | Rce1 inh | UUG fidelity | others
Cc1cccc(NS(=O)(=O)c2c(C(=O)N3CCCC3)c(C)n(C)c2C)c1 | -2 | 2 | 8 | -3 | -2 | 4 | i | 11
Fc1cccc(/C=N/Nc2nccnc2Cl)c1 | -3 | 0 | -12 | -3 | -23 | 58 | i | -12
CSc1ccc(C(=O)c2[nH]c(=O)[nH]c2C)cc1 | 1 | 1 | . | . | -130 | -9 | i | -18
COc1ccc(/C=N/Nc2nc(Nc3ccccc3)nc(N3CCCC3)n2)cc1 | 7 | 2 | -4 | -3 | 0 | 0 | i | .
Cn1c(=O)c(NC(=O)c2ccccc2)c2n(c1=S)CCCCC2 | -2 | -1 | -4 | 2 | -40 | -7 | i | -8
COc1ccccc1N(CN1C(=O)c2ccccc2C1=O)C(=O)c1cccc(C)c1 | 3 | 2 | 4 | -2 | 15 | -9 | i | .
CC1=C(C(=O)N2CCOCC2)CC(CC(=O)NCCN2CCOCC2)C(=O)N1Cc1ccccc1 (centres undefined) | 6 | 3 | . | . | 9 | . | . | 28
COc1ccccc1C(=O)NCCC(=O)NNC(=O)Cn1ccc(C(F)(F)F)n1 | 24 | 4 | . | . | 11 | -15 | i | -5
CCOC(=O)C1(CCc2ccccc2)CCN(Cc2ccccn2)CC1 | 2 | -2 | -2 | -9 | 10 | -5 | i | .
CC1CN(c2nc3ccccc3nc2NS(=O)(=O)c2ccccc2)CC(C)O1 (centres undefined) | 0 | -6 | . | . | -9 | . | . | -4
Cc1cc(C)c(S(=O)(=O)NCCn2ccc3ccccc32)c(C)c1 | -2 | 1 | 2 | 0 | -7 | 30 | i | -8
Cn1c(CNC(=O)c2cccs2)n[nH]c1=S | 5 | 5 | 36 | -5 | -19 | 4 | i | 5
